Screening data (PubChem)
HPGD block: blocks human HPGD enzyme activity | purified HPGD, NADH fluorescence kinetic, PGE2 substrate | 4.3% of 150,000 active | Potency, µM, inactives show at the highest dose activity change, negative = inhibition, hits mostly inhibitors | P15428; active = well fitted inhibition curve with a large enough effect (not every such curve was filed as active); inconclusive = small, poorly fitted or top-dose-only effect, or another doubt; inactive = no such curve, though single readings can be large or run the other way;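 further: top concentration of the series not given in the record; plate controls included wells without enzyme; inactives centre near -10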
Target sequence (P15428 whole entry, looked up): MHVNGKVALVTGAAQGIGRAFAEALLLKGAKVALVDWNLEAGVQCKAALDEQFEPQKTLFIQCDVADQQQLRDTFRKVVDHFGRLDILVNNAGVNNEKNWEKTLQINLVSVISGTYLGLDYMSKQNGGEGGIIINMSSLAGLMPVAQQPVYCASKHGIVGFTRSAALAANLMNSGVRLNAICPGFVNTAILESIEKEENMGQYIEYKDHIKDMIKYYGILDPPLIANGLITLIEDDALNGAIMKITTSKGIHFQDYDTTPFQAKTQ
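20 nM HPGD preincubated 15 min at room temperature with compound in 50 mM Tris-HCl pH 8, 0.01% Tween 20. Started with 1 mM NAD+ and 30 uM prostaglandin E2; NADH fluorescence (360/450 nm) read 5 times over 30-s intervals, last minus first.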
The depositor's hits bear a star; u = inconclusive; & = joins results of further samples. On the % scale 0 is the no-effect control and ±100 the full control effect; potency means the concentration at half of the fitted maximal effect.

SMILES	HPGD block
Cc1ccccc1CCNC(=O)C1CCN(S(=O)(=O)c2ccc(-n3cnnn3)cc2)CC1	-14.5%
Cc1cccc(N2CCN(C3=NC(=O)C(Cc4ccccc4)S3)CC2)c1 (stereo not given)	-14.4%
CC(C)CC(C(=O)Oc1ccc2c3c(c(=O)oc2c1)CCC3)N1C(=O)c2ccccc2C1=O (stereo not given)	u
Cc1cc2cc3c(cc2nc1SCc1ccccn1)OCCO3	-10.0%
CSc1nsc(SCC(=O)Nc2c(C)n(C)n(-c3ccccc3)c2=O)n1	0.1%
CCOc1ccc(NC(=O)C2CCN(S(=O)(=O)c3c(C)n[nH]c3C)CC2)cc1	-3.2%
Cc1cc(C)c2cc(CN(Cc3cccs3)Cc3nnnn3CC3CCCO3)c(=O)[nH]c2c1 (stereo not given)	-5.1%
CCOC(=O)C(Cc1c(F)cccc1F)(NC(C)=O)C(=O)OCC	-6.9%
Cc1ccc(N2C(=O)CN(Cc3sccc3C)C2=S)cc1C	3.16µM*
O=C(c1ccccc1)c1ccc(Oc2ncccn2)cc1	-19.7%
O=C(COC(=O)[C@H](Cc1c[nH]c2ccccc12)NC(=O)c1cccs1)NCc1ccccc1	-15.1%
CC[C@H](c1ccccc1)c1cc(C(C)(C)C)cc(C(C)(C)C)c1O	-6.0%
Cc1ccc(Cl)cc1NC(=S)N(CCCN1CCOCC1)Cc1ccccn1	-5.3%
Cc1ccc(NC(=O)CSc2nnc(CNC(=O)c3c(F)cccc3Cl)o2)cc1	-14.3%
CC(=O)N1CC=CC1(CC(C)C)C(=O)NCc1cc(F)cc(C(F)(F)F)c1 (stereo not given)	-8.7%&-1.6%
COc1cc(CCC(=O)OCC(=O)Nc2ncc(Cl)cc2Cl)cc(OC)c1OC	-5.1%
Cc1cc(C)nc(NS(=O)(=O)c2ccc(NC(=O)c3ccco3)cc2)n1	-5.4%
COc1nc(N/N=C/c2ccc(-c3cccc([N+](=O)[O-])c3)o2)nc(N2CCOCC2)n1	-12.6%
O=S(=O)(/N=C(/Nc1ccccn1)c1ccc(Cl)cc1)c1ccc(Cl)cc1	-0.8%
COc1ccccc1NC(CC(=O)c1ccccc1)C(=O)OCC(=O)c1ccc(C)c(C)c1 (stereo not given)	-17.1%
CC1CN(C(=O)c2cccc(C(=O)N3CC(C)OC(C)C3)c2)CC(C)O1 (stereo not given)	-8.5%
CCOC(=O)c1c(NC(=O)c2cccnc2)sc(C)c1C	u
CCCCN(CCCC)CCNC(=O)Cc1nc2c(c(=O)[nH]c(=O)n2C)n1C	-3.2%
Cc1ccc(NC(=S)N2CCCC(c3nc4ccc(C)cc4[nH]3)C2)c(C)c1 (stereo not given)	-9.1%
COc1cc(OC)cc(C(=O)NCCNC(=O)c2ccco2)c1	-6.3%
O=C(CNC(=O)c1ccc(Oc2ccccc2)cc1)OCc1ccc(Br)cc1	-9.3%
CCn1c2ccccc2c2nnc(SCC(=O)Nc3cc(C)on3)nc21	-19.3%
COc1cc(/C=N/N2CCN(C3c4ccccc4-c4ccccc43)CC2)cc(OC)c1OC	-10.9%
CCc1c(C)[nH]c2ccc(C)cc2c1=O	-7.1%
CCOc1ccc(C(=O)CCNC(Cc2cnc[nH]2)C(=O)O)cc1 (stereo not given)	-3.3%
Cc1cc(C(F)(F)F)nn1Cc1n[nH]c(=S)n1-c1ccc(Cl)cc1	-9.5%
COc1ccc(-n2nnnc2SCC(=O)c2ccc3c(c2)OCCO3)cc1	-9.8%
CC(C(=O)O)c1ccc(N2Cc3ccccc3C2=O)cc1 (stereo not given)	-5.6%&-6.0%
O=[N+]([O-])c1cn(Cc2ccc(Cl)cc2)cn1	-6.9%
COc1ccc(S(=O)(=O)N(C)CC(=O)Nc2ccc3c(c2)OCO3)cc1OC	-19.7%
O=C(NCCN1CCCCC1)/C(=N\O)c1ccccc1	-13.0%
CCOC(=O)NC(=O)/C(C#N)=N/Nc1c(F)cccc1F	-24.0%
O=C(CSc1nnc(-c2cccnc2)n1Cc1ccco1)c1ccc(Cl)cc1	-14.4%
Cc1ccc(S(=O)(=O)N/N=C/c2cnn(C)c2C)cc1	-1.8%
COc1ccc(CCNC(=O)c2nn(C)cc2Cl)cc1	-8.8%
COc1cc(/C=N/NC(=O)C23CC4CC(CC(C4)C2)C3)cc(Br)c1O	u
O=C(NCCCN1CCCC1)c1ccc(CSCc2cccc(Cl)c2)o1	2.7%
COc1ccc(C(=O)Nc2cc([N+](=O)[O-])ccc2N2CCN(C)CC2)cc1	-6.8%
O=S(=O)(Nc1nccs1)c1cnc(Cl)c(Br)c1	-12.7%
Cc1nn(Cc2ccccc2)c(N)c1C#N	-5.9%
COc1cc(NC(=S)NCc2cccnc2)cc(OC)c1	-13.3%
Cc1cnc(C(=O)Nc2ccc(N3CCOCC3)cc2)cn1	-8.5%
O=C(NCC1CCCO1)Nc1ccc(Cl)cc1 (stereo not given)	u
CCc1ccc(N2CC34C=CC(O3)C(C(=O)OC)C4C2=O)cc1 (stereo not given)	-4.8%
COc1ccc(NC(=O)C2CCC(CNc3c(N4CCC(C)CC4)c(=O)c3=O)CC2)cc1OC (stereo not given)	u
Cc1nn(-c2ccccc2)c(N)c1C(O)(C(F)(F)F)C(F)(F)F	-10.6%
CSc1nc(Cl)c(Cc2ccc(OC(C)C)cc2)c(N(C)C)n1	-16.4%
O=C(c1ccco1)N1CCN(C(=O)C(Sc2ccccc2)c2ccccc2)CC1 (stereo not given)	-10.7%
C/C(N)=C(/C#N)C(=O)CSc1nnc(Nc2ccccc2C)s1	28.2µM*
COC(=O)CCC(=O)OC1(C)C(=O)C=C2C=C(C3CC3)N(Cc3ccccc3)C=C2C1=O (stereo not given)	-13.9%
Cc1ccccc1CNC(=O)c1ccccc1C	u
Cn1c(Cn2cnc3ccccc32)nnc1SCc1ccccc1	3.2%
COc1ccc([C@@H]2[C@H]3CN(C(C)=O)CC=C3C(C#N)=C(N)C2(C#N)C#N)c2ccccc12	-16.0%
O=C(c1cc2ccccc2oc1=O)N1CCN(c2ccc(N3CCOCC3)nn2)CC1	-14.4%
CC(C)CC(=O)Nc1cccc2c1C(=O)N(c1ccccc1)C2=O	-6.1%
(listing goes on)
SMILES	HPGD block
COc1ccc(Oc2ncc3ncc(=O)n(C[C@H]4CCCO4)c3n2)cc1	-16.3%
COc1ccc(C)cc1S(=O)(=O)N(C)CC(=O)Nc1ccccc1	-4.2%
Cc1csc(NC(=O)CSc2nnc(Cc3cccn3C)n2CCc2ccccc2)n1	-4.2%
O=C(CNC(=O)C1COc2ccccc2O1)N/N=C/c1ccc(O)cc1O (stereo not given)	-21.3%
CCN1CCCC1CNC(=O)c1cc(S(N)(=O)=O)ccc1OC (stereo not given)	-12.8%
CCOc1ccc(CNc2ncnc(N)n2)cc1	-7.1%
O=C(NC1CCCc2ccccc21)C1CCC(CNc2c(N3CCOCC3)c(=O)c2=O)CC1 (stereo not given)	-15.7%
CCCOC(=O)c1ccc(OCC(O)CN2CCN(C(=O)c3ccccc3)CC2)cc1 (stereo not given)	-12.7%
Nc1ccc(N=Nc2ccccc2)c(N)c1	-12.4%
Cc1nnc(Sc2c(N)n(C)c(=O)n(C)c2=O)s1	7.0%
CC(C)(C)c1ccc(C(=O)NCC(=O)OCC(=O)c2ccc3c(c2)-c2ccccc2C3)cc1	-16.4%
O=C(O)CSCc1nc2ccccc2s1	-15.3%
Cc1cccc(-c2cc3nc(-c4ccccc4)cc(N4CCC5(CC4)OCCO5)n3n2)c1	u
COc1ccc(CCNC(=O)c2sc3ccccc3c2Cl)cc1OC	-11.6%
CCOC(=O)c1cc2c(=O)n3cccc(C)c3nc2n(CCCOC)c1=NC(=O)c1cccnc1	u
CC(C)c1ccc(S(=O)(=O)c2n[nH]n3c2nc(=O)c2ccccc23)cc1	u
Cc1ccc(S(=O)(=O)Cc2c(C)noc2C)cc1	-15.4%
O=C(OCC(=O)N1CCN(C(=O)c2ccco2)CC1)c1sc2cc(F)ccc2c1Cl	-22.9%
Cc1ccc(S(=O)(=O)N2CCOCC2)cc1NC(=O)CSc1nccn1C	-10.9%
CN1N=C(C(=O)N2CCN(c3ccc([N+](=O)[O-])cc3)CC2)CCC1=O	-9.6%

Three structures out of the list, sorted by count of non-hydrogen atoms, smallest number first:
SMILES	HPGD block
COc1ccc(Oc2ncc3ncc(=O)n(C[C@H]4CCCO4)c3n2)cc1	-16.3%
Cc1ccc(S(=O)(=O)N2CCOCC2)cc1NC(=O)CSc1nccn1C	-10.9%
CCOC(=O)c1cc2c(=O)n3cccc(C)c3nc2n(CCCOC)c1=NC(=O)c1cccnc1	u

(list continues)
SMILES	HPGD block
CC(=O)N1CCN(c2ccc(Nc3nc(C)nc4c3oc3ccccc34)cc2)CC1	-15.9%
COc1cc(NS(=O)(=O)c2ccc(F)cc2)c(C(=O)O)cc1OC	-11.0%
O=C(CSc1nc2ccccc2o1)N1c2ccccc2Sc2ccccc21	-3.0%
Cc1cccc(C)c1NC(=O)CCCSc1nnc(-c2ccc(Cl)cc2)n1-c1ccccc1	-9.9%
CCCCCOc1ccc(N2C(=O)C3C4C=CC(C3C2=O)N(C)C4=O)cc1 (stereo not given)	-6.9%
CCOC(=O)c1c(-c2ccccc2)oc2ccc(OC)cc12	u
O=c1cnc2cnc(N3CCNCC3)nc2n1CCc1ccccc1	u
Cc1c(CCC(=O)O)c(=O)n2c([nH]c3ccccc32)c1C#N	u
FC(F)(F)c1cccc(N2CCN(C(=S)NC3CCCCC3)CC2)c1	-14.5%
O=C1N=C(N2CCCCC2)SC1=C1CCCC1	u
Cc1cc(NS(=O)(=O)c2ccc(CC(C)C)cc2)no1	3.9%
CCCOC(=O)CSc1nnc(-c2cc(OC)c(OC)c(OC)c2)o1	-6.2%
CCOC(=O)/C=C1\SCC(=O)N1CC(=O)NC12CC3CC(CC(C3)C1)C2	-1.3%
O=C(NC1CCCCC1)C1Cc2ccccc2CN1S(=O)(=O)c1ccc(F)cc1 (stereo not given)	-16.6%
O=C(CNC(=O)OCc1ccccc1)NC1CCCCCCC1	-10.9%
Cc1ccc(NC(=O)Cc2ncc(C(F)(F)F)cc2Cl)cc1Cl	-10.6%
Cc1ccc(NC(=O)CN(C)C(=O)CSc2ncc(C(F)(F)F)cc2Cl)cc1	-13.8%
CCn1c(SCc2nc(N)nc(N3CCCCC3)n2)nc2c1c(=O)n(C)c(=O)n2C	-10.2%
COC(=O)C1=C(C)N(Cc2ccco2)C(=O)N[C@@H]1c1ccccc1	-5.4%
COC(=O)c1ccc(OCC2c3cc(OC)c(OC)cc3CCN2C(=O)c2ccco2)cc1 (stereo not given)	u
Cc1ccc(CNC(=O)COc2ccccc2-c2ccccc2)cc1	-11.8%
COc1cc(C(=O)NCc2nnc(SCC(=O)NCc3ccccc3)o2)cc(OC)c1OC	-7.9%
O=C(CN(c1ccccc1)S(=O)(=O)c1ccccc1)N/N=C/c1ccc(OC2CSC2)cc1	-14.0%
COc1ccc(CC(=O)NNC(=S)Nc2ccc(Br)cc2)cc1	-18.9%
Cc1ccc(NC(=O)C2COc3ccccc3O2)nc1 (stereo not given)	-2.2%
CC(OCc1ccccc1)C(NC(=O)OC(C)(C)C)C(=O)NCC1CCCO1 (stereo not given)	-11.8%
Cc1ccc2c(CN3CCN(CCO)CC3)cc(=O)oc2c1C	-11.3%
Cc1onc(-c2ccccc2)c1-c1nc2ccccc2c(=O)o1	-8.3%
CCN(CC)CCn1c(NCc2cc(OC)ccc2OC)nc2ccccc21	-3.3%
CC(=O)Oc1cc2c(cc1Cl)C1(CC(c3ccccc3Cl)O2)CC(C)(C)NC(=S)N1 (stereo not given)	-19.5%
N#C/C(=C(/O)COC(=O)Cc1c[nH]c2ccccc12)c1nc2ccccc2[nH]1	-8.7%
O=C(NCC1CCCO1)/C(=C\c1ccco1)NC(=O)c1ccccc1 (stereo not given)	-14.2%
Cc1cc(C(F)F)n2nc(C(=O)Nc3sc4c(c3C#N)CCC4)nc2n1	-22.9%
CC1CCCC(C)N1c1nnc(N)s1 (stereo not given)	28.2µM*
CC1CN(c2c(F)c(N)c3c(=O)c(C(=O)O)cn(C4CC4)c3c2F)CC(C)N1 (stereo not given)	-10.7%
COC(=O)c1cc(C)sc1NC(=O)c1cccnc1	-12.7%
CCCCn1c(-c2cc(Cl)ccc2OC)n[nH]c1=S	28.2µM*
CC1Cc2ccccc2N1C(=O)CSc1nnc(-c2ccc(S(=O)(=O)N3CCOCC3)cc2)n1C (stereo not given)	-7.9%
CC1CCCN(CCCOc2ccc([N+](=O)[O-])cc2)C1 (stereo not given)	3.5%
COc1ccc(CNC(=O)COc2ccc(S(=O)(=O)NC(C)C)cc2)cc1	-7.8%

By substructure: those above with a nitro group on carbon
SMILES	HPGD block
COc1nc(N/N=C/c2ccc(-c3cccc([N+](=O)[O-])c3)o2)nc(N2CCOCC2)n1	-12.6%
O=[N+]([O-])c1cn(Cc2ccc(Cl)cc2)cn1	-6.9%
COc1ccc(C(=O)Nc2cc([N+](=O)[O-])ccc2N2CCN(C)CC2)cc1	-6.8%
CN1N=C(C(=O)N2CCN(c3ccc([N+](=O)[O-])cc3)CC2)CCC1=O	-9.6%
CC1CCCN(CCCOc2ccc([N+](=O)[O-])cc2)C1 (stereo not given)	3.5%

Further structures.
SMILES	HPGD block
CCCCC(=O)Nc1ccc(C(=O)NCCCn2ccnc2)cc1	-10.7%
CC(C)NC(=O)NC(=O)COc1ncnc2sccc12	-10.8%
Fc1ccc2nc(N3CCCCC3)sc2c1	-12.2%
Cc1ccc(S(=O)(=O)Nc2ccc(NC(=O)CN3CCCCC3)cc2)cc1	2.3%
COc1cc(CNn2cnnc2)ccc1OCC(=O)NC(C)(C)C	-2.6%
COc1ccc(C)cc1N(C(=O)CNC(=O)c1ccco1)C(C(=O)NC1CCCC1)c1cccnc1 (stereo not given)	-5.1%
O=S(=O)(c1ccc(F)cc1)c1nc(-c2ccco2)oc1Nc1ccc(F)cc1	-15.9%

This is a subset. The share of hits here may be higher or lower than overall.
